StopGo reporter: FMDV 2A StopGo reporter, luciferase signal; human cells with a luciferase reporter of 2A StopGo recoding; control for the full effect not named in the record; Potency, µM (titrated, usually from 57.9 µM), without a hit: at the highest dose signal change, negative = less light; hit rate 1.2% among 410,000; AID 1159524; active = well fitted falling curve with a large enough effect; inconclusive = small, poorly fitted or top-dose-only effect; inactive = no such curve, though single readings can be large or run the other way; tested in HEK293T cells; note: % is set by controls: 0 for no effect and ±100 for the full control effect; nearly all actives have a fitted effect of over 45% in size; luciferase light after 4 h
Cruzain Triton: inhibitors of Trypanosoma cruzi cruzain with detergent | P25779 | Potency, µM, inactives show max response, negative = inhibition, hits mostly inhibitors | hit rate 0.43% among 200,000 | purified cruzain, Z-FR-AMC fluorescence, 0.01% Triton; active = well fitted curve in the direction sought with a large enough effect; inconclusive = small, poorly fitted or top-dose-only effect, or another doubt; inactive = no such curve, though single readings can be large; an effect the other way counts as inactive or inconclusive;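 note: plate controls were neutral wells for no effect and buffer without enzyme for full effect; nearly all actives have a fitted effect of over 40% in size; top concentration of the series not given in the record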
Target sequence (P25779 123-467 limits assumed): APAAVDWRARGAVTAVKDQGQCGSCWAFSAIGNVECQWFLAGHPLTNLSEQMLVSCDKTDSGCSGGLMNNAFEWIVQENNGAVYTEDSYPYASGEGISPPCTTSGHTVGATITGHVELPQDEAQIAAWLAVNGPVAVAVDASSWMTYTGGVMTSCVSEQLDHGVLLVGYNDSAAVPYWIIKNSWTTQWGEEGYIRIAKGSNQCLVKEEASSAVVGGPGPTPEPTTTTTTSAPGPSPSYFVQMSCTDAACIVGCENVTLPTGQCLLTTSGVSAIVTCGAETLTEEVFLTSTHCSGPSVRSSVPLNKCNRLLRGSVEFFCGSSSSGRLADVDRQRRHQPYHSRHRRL
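Purified cruzain (1.5 nM final) was preincubated with compounds for 15 min at room temperature in 100 mM sodium acetate pH 5.5, 5 mM DTT, 0.01% Triton X-100. Reaction started with 2 uM Z-FR-AMC; AMC fluorescence change over 60 s gave activity.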
SARS PLP yeast: inhibitors of SARS-CoV papain-like protease in yeast; hit rate 0.19% among 330,000; Potency, µM (top dose mostly 32.9 µM), for the others: at the highest dose activity, positive = growth rescue; AID 485353; S. cerevisiae expressing SARS-CoV PLpro, growth rescue; control for the full effect not named in the record; note: 0% is about no effect; nearly all actives have a fitted effect of over 55% in size; growth read by luminescence after 48 h
NS1 inh: inhibitors of influenza NS1 protein function; S. cerevisiae slowed by influenza A NS1, growth recovery by OD600; Potency, µM (top dose mostly 46.1 µM), inactives show top-dose activity, positive = more growth; AID 2326; hit rate 0.4% among 270,000; note: actives are rising curves; nearly all actives have a fitted effect of over 50% in size
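OD600 was taken as the measure of yeast growth restored by compound in an NS1-expressing S. cerevisiae strain. Cells had been washed out of glucose medium and diluted 1:100 into galactose -URA medium, pH 6.0.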
Cruzain noTriton: blocks cruzain activity in detergent-free assay; P25779; purified cruzain, Z-FR-AMC fluorescence, no detergent; Potency, µM, inactives show max response, negative = inhibition, actives largely listed as inhibitors; hit rate 2.3% among 200,000; active = well fitted curve in the direction sought with a large enough effect; inconclusive = small, poorly fitted or top-dose-only effect, or another doubt; inactive = no such curve, though single readings can be large; an effect the other way counts as inactive or inconclusive;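 note: plate controls were enzyme without inhibitor for no effect and buffer without enzyme for full effect; nearly all actives have a fitted effect of over 40% in size; top concentration of the series not given in the record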
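Purified cruzain at 1.5 nM, pre-incubated 15 min with compound at room temperature in 100 mM sodium acetate pH 5.5, 5 mM DTT, 0.00005% Triton X-100. Reaction started with 2 uM Z-FR-AMC; AMC fluorescence increase over 60 s gives rate.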
RE007 growth inh: less growth of the S. pombe RE007 Vpr strain; S. pombe RE007 Vpr strain, BacTiter-Glo ATP luminescence, 24 h; control for the full effect not named in the record; Potency, µM (top dose mostly 92.2 µM), for inactives: top-dose activity change, negative = less growth; hit rate 0.21% among 360,000; AID 651644; active = well fitted falling curve with a large enough effect; inconclusive = small, poorly fitted or top-dose-only effect; inactive = no such curve, though single readings can be large or run the other way;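 note: % is set by controls: 0 for no effect and ±100 for the full control effect; nearly all actives have a fitted effect of over 50% in size; the assay follows cell death caused by Vpr and the record does not say whether a fall means rescue or toxicity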
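Fission yeast RE007 carrying one integrated HIV-1 vpr copy, seeded at OD 0.01 in PMG+AL medium with 23 nL pinned compound. Grown 24 h at 30 degrees; viability read by BacTiter-Glo luminescence after 5 min.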
LASV entry inh: inhibitors of Lassa virus binding or cell entry | hit rate 1.2% among 300,000 | Potency, µM (doses to about 37.9 µM), without a hit: at the top dose activity change, negative = inhibition, most hits filed as inhibitors | Lassa virus pseudotype entry inhibition, cell reporter; control for the full effect not named in the record; active means well fitted inhibition curve with a large enough effect; inconclusive means small, poorly fitted or top-dose-only effect, or effect the other way; inactive means flat fitted curve, though single readings scatter; tested in HEK293 cells; note: % is set by controls: 0 for no effect and ±100 for the full control effect; nearly all actives have a fitted effect of over 50% in size; luciferase read-out
MARV entry inh: Marburg virus entry inhibition; Marburg virus pseudotyped entry inhibition, cell reporter; control for the full effect not named in the record; about a third of the inactives were read at about 46 µM; Potency, µM (doses to about 37.8 µM), for inactives: at the highest dose activity change, negative = inhibition, hits mostly inhibitors; hit rate 1.8% among 300,000; AID 540276; active = well fitted inhibition curve with a large enough effect; inconclusive = small, poorly fitted or top-dose-only effect, or effect the other way; inactive = flat fitted curve, though single readings scatter; tested in HEK293 cells; about a fifth of its hits are not listed in these tables; note: % is set by controls: 0 for no effect and ±100 for the full control effect; luciferase read-out
An asterisk follows results filed as active; [ ] = another dose, or the depositor's remark. Unless noted, calls come from the whole dose curve; as a rule, active means well fitted rising curve with a large enough effect; inconclusive means small, poorly fitted or top-dose-only effect; inactive means no such curve, though single readings can be large or run the other way. Potency is the fitted concentration of half-maximal effect. The order is random, and some 4.8% of all compounds hit somewhere here.

O=C1S/C(=C\c2cccs2)C(=O)N1c1ccc(O)cc1 was read as StopGo reporter 56.0%[activator], SARS PLP yeast 2.4%, NS1 inh -0.1% and RE007 growth inh -4.1%.
Screening Cc1ccc(-n2c(-c3ccco3)nc3nc4ccccc4nc32)cc1F returned StopGo reporter -13.2%, Cruzain Triton 7.8%, SARS PLP yeast 1.4%, NS1 inh 5.2%, Cruzain noTriton -0.9%, RE007 growth inh -8.2%, LASV entry inh -17.4% and MARV entry inh -6.5%.
Screening CCC(=O)N1CCCc2cc(S(=O)(=O)N3CCN(c4ccccn4)CC3)ccc21 returned StopGo reporter inconclusive, Cruzain Triton 0.5%, SARS PLP yeast -0.2%, NS1 inh -25.9%, Cruzain noTriton 0.5%, RE007 growth inh -4.4%, LASV entry inh -1.0% and MARV entry inh inconclusive.
`CC(C)(O)c1[nH]c2ccc(C#N)cc2c1C(C)(C)O` gave StopGo reporter -5.7%, SARS PLP yeast -7.3%, NS1 inh -10.8% and RE007 growth inh 8.9%.
Screening OCCN1CCN(C(=S)c2ccc(Cl)cc2)CC1 returned StopGo reporter -16.3%, Cruzain Triton 3.7%, SARS PLP yeast -0.6%, NS1 inh 4.8%, Cruzain noTriton 2.1%, RE007 growth inh 18.2%, LASV entry inh -5.2% and MARV entry inh -2.6%.
For CSc1nc2nccc(-c3ccc4c(c3)OCO4)n2n1 the results were StopGo reporter 18.0%, SARS PLP yeast -2.1%, RE007 growth inh 50.4%, LASV entry inh 0.4% and MARV entry inh 19.4%[46.1 µM].
Cc1cc(C)cc(OCCn2nnc3ccccc32)c1 was read as StopGo reporter 45.0%[activator], SARS PLP yeast 0.9%, NS1 inh -12.2% and RE007 growth inh -5.6%.
O=C(/C=C/c1ccc(Cl)cc1Cl)N1CCN(c2ccc([N+](=O)[O-])c(N3CCOCC3)c2)CC1 was read as StopGo reporter inconclusive, Cruzain Triton -4.8%, SARS PLP yeast 9.5%, NS1 inh -3.8%, Cruzain noTriton 12.0%, RE007 growth inh -24.4%, LASV entry inh -5.0% and MARV entry inh -14.9%.
`COc1cccc(CSc2nc3ccncc3n2CC(=O)Nc2ccc(OC)c(OC)c2OC)c1` gave StopGo reporter 11.8%, Cruzain Triton -11.8%, Cruzain noTriton 9.3%, LASV entry inh inconclusive and MARV entry inh 18.0%[46.1 µM].
Screening COC(=O)c1cc(Br)c(=O)n(-c2cc(C)on2)c1 returned StopGo reporter -15.3%, Cruzain Triton 1.5%, SARS PLP yeast -6.3%, NS1 inh 5.5%, Cruzain noTriton inconclusive, RE007 growth inh -5.5%, LASV entry inh 17.7% and MARV entry inh 9.6%.
CS(=O)(=O)c1ccc2nc(NC(=O)CN3CCCCCC3)sc2c1 was read as Cruzain Triton 0.5%, SARS PLP yeast 4.8%, NS1 inh -1.3%, Cruzain noTriton -2.8%, RE007 growth inh 7.9%, LASV entry inh 6.2% and MARV entry inh -0.1%.
For O=C(c1cccs1)N1CCCN(c2ncnc3scc(-c4ccccc4)c23)CC1 the results were StopGo reporter inconclusive, SARS PLP yeast 1.6%, NS1 inh -5.3%, RE007 growth inh -2.0%, LASV entry inh inconclusive and MARV entry inh inconclusive.
`CC(C)CN(C(=O)c1cc(=O)[nH]c2ccccc12)c1c(N)n(Cc2ccccc2)c(=O)[nH]c1=O` gave StopGo reporter -9.9%, SARS PLP yeast 4.3%, RE007 growth inh 0.9%, LASV entry inh -2.1% and MARV entry inh 5.7%[46.1 µM].
`CCOc1ccc(C2C3=C(CCCC3=O)Nc3nc(C(F)(F)F)nn32)cc1OC` (stereo not given) gave StopGo reporter -24.8%, Cruzain Triton -4.0%, SARS PLP yeast 8.3%, NS1 inh 0.2%, Cruzain noTriton -5.3%, RE007 growth inh -8.9%, LASV entry inh 3.2% and MARV entry inh 2.8%.
Screening COC(=O)c1c(NC(=O)c2c(C)noc2C)sc2c1CCCCCC2 returned Cruzain Triton 5.4%, SARS PLP yeast 3.2%, NS1 inh 6.2%, Cruzain noTriton -3.9% and MARV entry inh 0.3%.
COc1cc2cc(C(=O)N/N=C/c3ccc(F)cc3)[nH]c2cc1OC was read as StopGo reporter 0.0%, SARS PLP yeast -0.1%, NS1 inh -4.3% and RE007 growth inh -12.6%.
Screening COc1ccn(C2CCCCO2)c(=O)n1 (stereo not given) returned StopGo reporter -19.1%, RE007 growth inh -4.8%, LASV entry inh 3.9%[46.1 µM] and MARV entry inh -11.5%[46.1 µM].
COc1ccc(C(C(=O)Nc2ccc(F)cc2)N(C(=O)Cn2nnc3ccccc32)C2CC2)cc1 (stereo not given) was read as Cruzain Triton -1.3%, SARS PLP yeast 3.0%, NS1 inh -9.9%, Cruzain noTriton 18.0%, RE007 growth inh -5.3%, LASV entry inh -21.0% and MARV entry inh inconclusive.
Screening Cc1ccc(CN(Cc2ccco2)C(=O)c2ccccc2Br)o1 returned StopGo reporter -23.9%, Cruzain Triton -3.3%, Cruzain noTriton -7.7%, LASV entry inh -0.1%[46.1 µM] and MARV entry inh -8.0%[46.1 µM].
Screening Cc1ccc(Cl)cc1N1CCN(Cc2nc3c(c(=O)[nH]c(=O)n3C)n2CCc2ccccc2)CC1 returned StopGo reporter -14.0%, Cruzain Triton -0.5%, SARS PLP yeast -0.6%, NS1 inh 16.0%, Cruzain noTriton inconclusive, RE007 growth inh -2.6%, LASV entry inh inconclusive and MARV entry inh inconclusive.
COc1ccc(-c2[nH]ncc2/C=N/NC(=O)c2cc(Br)ccc2O)c(OC)c1 was read as StopGo reporter 5.1%, Cruzain Triton -15.7%, SARS PLP yeast 26.5%, NS1 inh 2.8%, Cruzain noTriton inconclusive, RE007 growth inh 5.6%, LASV entry inh inconclusive and MARV entry inh 10.6%.
Screening COc1ccc(-c2noc(CSc3nnc(C)n3-c3ccc(C)c(C)c3)n2)c(OC)c1 returned StopGo reporter -18.8%, Cruzain Triton -6.3%, Cruzain noTriton 19.4%, LASV entry inh inconclusive and MARV entry inh inconclusive.
`COc1ccc(C(=O)OCC(=O)Nc2cc(C)c(C)cc2[N+](=O)[O-])cc1` gave StopGo reporter -15.6%, Cruzain Triton -4.1%, SARS PLP yeast 15.9%, NS1 inh -7.6%, Cruzain noTriton -25.6%, RE007 growth inh -11.0%, LASV entry inh -9.1% and MARV entry inh 10.0%.
COC(=O)c1c(C)[nH]c(O)c1C=Nc1ccc(Oc2ccccc2)cc1 was read as StopGo reporter -20.3%, SARS PLP yeast -0.1%, RE007 growth inh -8.1%, LASV entry inh inconclusive and MARV entry inh 16.8%[46.1 µM].
CSc1ccccc1COC(=O)Nc1ccccc1C was read as StopGo reporter 3.1%, SARS PLP yeast 0.0%, RE007 growth inh 0.3%, LASV entry inh -24.0%[46.1 µM] and MARV entry inh inconclusive.
`COc1ccc(C(=O)Nc2nc3c(s2)CCc2cc(OC)ccc2-3)cc1` gave StopGo reporter inconclusive, Cruzain Triton -14.0%, Cruzain noTriton -73.3%, LASV entry inh 11.9%[46.1 µM] and MARV entry inh inconclusive.
`CC(C)C(c1nnnn1C1CCCCC1)N1CCc2ccccc21` (stereo not given) gave StopGo reporter -14.5%, Cruzain Triton -1.2%, SARS PLP yeast 5.3%, NS1 inh 7.9%, Cruzain noTriton 12.8%, RE007 growth inh 4.4%, LASV entry inh 12.3% and MARV entry inh inconclusive.
O=C(CC1COc2ccccc2O1)NCc1ccccc1 (stereo not given) was read as StopGo reporter 26.3%, Cruzain Triton -3.0%, SARS PLP yeast -6.0%, NS1 inh -1.1%, Cruzain noTriton -10.6%, RE007 growth inh 3.4%, LASV entry inh 15.7% and MARV entry inh inconclusive.
Screening CCCOc1ccccc1-n1sc2c(c1=S)-c1cc(OC)cc3c1N(C(=O)C3=O)C2(C)C returned StopGo reporter inconclusive, Cruzain Triton -4.3%, SARS PLP yeast -3.2%, NS1 inh 13.9%, Cruzain noTriton -0.4%, RE007 growth inh -1.5%, LASV entry inh inconclusive and MARV entry inh inconclusive.
`COc1cccc(C(=O)COC(=O)CCC(=O)c2ccccc2)c1` gave StopGo reporter 0.1%, SARS PLP yeast -3.1%, NS1 inh -12.2% and RE007 growth inh -0.5%.
`COC(=O)c1sccc1NC(=O)CN1CCN(c2ccc(F)cc2)CC1` gave StopGo reporter inconclusive, Cruzain Triton -5.1%, SARS PLP yeast -6.2%, NS1 inh -72.7%, Cruzain noTriton 28.5%, RE007 growth inh -18.8%, LASV entry inh inconclusive and MARV entry inh -13.0%.
Cc1ccccc1OCC(=O)Nc1cccc(C(=O)O)c1 was read as StopGo reporter 3.98µM*, SARS PLP yeast -0.1%, NS1 inh 4.7%, RE007 growth inh 16.1%, LASV entry inh 0.891µM* and MARV entry inh inconclusive.
O=C(Nc1ccc(NC(=O)C2CC2)nc1)c1ccccn1 was read as StopGo reporter -21.4%, Cruzain Triton -0.8%, SARS PLP yeast 3.4%, NS1 inh -23.8%, Cruzain noTriton -3.5%, RE007 growth inh -14.3%, LASV entry inh inconclusive and MARV entry inh inconclusive.
For CC(=O)c1cccc(OCc2cc(C(=O)N(C)C(C)c3ccccn3)no2)c1 (stereo not given) the results were StopGo reporter -11.2%, SARS PLP yeast 2.1%, NS1 inh -2.5%, RE007 growth inh 7.0%, LASV entry inh 5.6% and MARV entry inh 3.1%.
For CCn1nc(C)c(CNC(=O)CC2C(=O)NCCN2CC(C)(C)C)c1C (stereo not given) the results were StopGo reporter 9.7%, SARS PLP yeast -0.6%, NS1 inh -0.2% and RE007 growth inh -10.5%.
COc1ccccc1NC(=O)c1c(-c2ccc(C)cc2)nnc2ccccc12 was read as StopGo reporter 25.0%, Cruzain Triton -4.1%, Cruzain noTriton -19.0% and LASV entry inh 25.7%[46.1 µM].

Bioassay records as filed in PubChem.
